Assay outcomes from PubChem BioAssay.
DUX4 inh – inhibitors of DUX4-driven ZSCAN4 reporter expression, primary screen, 293T cells, Gaussia and Italica luciferase | 293T-iDUX4 ZSCAN4-Gaussia luciferase reporter, 24 h; hits give low values | activity change, negative = inhibition, % (concentration not given with the values) | 37,000 compounds, 0.8% hits;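 active = -10% or lower and over 25 points stronger than a control reporter; inconclusive = -10% or lower with a smaller gap; inactive = above -10%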;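 also: 0% = median of neutral control wells and -100% = median of positive control wells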
DUX4 inh difference – recorded beside DUX4 inh, whose call it bears; Gaussia minus Italica difference, %; measured here: selective DUX4 reporter inhibition;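 worked out from the two reporters; negative = selective loss of the DUX4 reporter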
DUX4 inh control – further read-out of DUX4 inh, marked with its call; activity change, negative = inhibition, %; measured here: Italica tet-on control reporter;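 0 = neutral control and -100 = positive control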
An asterisk follows results filed as active; ? = inconclusive; . = no result given.

SMILES	DUX4 inh	DUX4 inh difference	DUX4 inh control
COCC#Cc1ccc([C@@H]2[C@H](CO)N3C(=O)CN(C(=O)c4cccnc4)C[C@@H]23)cc1	4	-4	8.6
O=C(NC[C@@H]1[C@@H](c2ccccc2)[C@@H](CO)N1C(=O)Cc1cccnc1)C1CC1	3	0	2.7
CC(C)C#Cc1ccc([C@H]2[C@@H](CO)N(C(=O)C3CC3)[C@H]2C#N)cc1	-5	-4	-0.9
COc1ccc(NC(=O)N(C)C[C@@H]2OCCCC[C@@H](C)Oc3ccc(NC(=O)CCCN(C)C)cc3C(=O)N([C@H](C)CO)C[C@@H]2C)cc1	3	2	1.3
C/C=C/c1ccc([C@@H]2[C@@H](CO)N(C(C)=O)C23CN(C(=O)NC2CCCC2)C3)cc1	1	-3	4.4
COC(=O)[C@H]1[C@H](CO)[C@H]2Cn3c(ccc(C4=CCCCC4)c3=O)[C@H]2N1C(=O)c1ccccc1F	-2	-9	6.9
Cc1cccc(S(=O)(=O)N2CC[C@H]3[C@H](CO)Nc4ccc(C#Cc5ccc(F)cc5)cc4[C@H]32)c1	1	0	1.8
COc1ccccc1CNC(=O)C[C@@H]1C[C@@H]2c3cc(NS(=O)(=O)c4ccc(F)cc4)ccc3O[C@@H]2[C@@H](CO)O1	?	.	.
CN(C)CC(=O)N1[C@@H]2c3ccc(-c4ccc(F)cc4)c(=O)n3C[C@@H]2[C@@H](CO)[C@@H]1C(=O)NC1CCC1	1	-2	2.2
C/C=C/c1ccc([C@H]2[C@@H](CO)N3C(=O)CN(S(=O)(=O)c4cccc(F)c4)C[C@H]23)cc1	8	-5	13
COc1ccc2c3c(n(C)c2c1)[C@H](CO)N(C)CC31CN(CC2CC2)C1	14	10	4.1
CCc1cnc(N2[C@H](CO)[C@H](c3ccccc3)[C@@H]2C#N)s1	-3	-3	0.1
N#C[C@H]1[C@@H](c2ccc(-c3cccc(F)c3)cc2)[C@@H](CO)N1C(=O)c1cccnc1	5	5	0.4
COc1ccc2c3c(n(C)c2c1)[C@@H](CO)N(C(=O)c1cccnc1)CC31CCN(C)CC1	1	2	-1.7
O=C([C@H]1[C@H](CO)[C@H]2Cn3c(cccc3=O)[C@@H]1N2C(=O)c1ccccn1)N1CCCCC1	9	6	3.0
CCC(=O)NC[C@H]1[C@H](c2ccc(-c3ccccc3)cc2)[C@H](CO)N1C(=O)C1CC1	2	-1	2.2
CO[C@@H]1CN(C)C(=O)c2ccc(NC(=O)C3CCC3)cc2OC[C@@H](C)N(S(=O)(=O)c2ccc(Cl)cc2)C[C@H]1C	?	.	.
O=C(Cc1ccccc1)N1CC[C@@H]2[C@H]1c1cc(Br)ccc1N[C@@H]2CO	1	3	-2.1
C[C@@H]1CN([C@H](C)CO)S(=O)(=O)c2ccc(C#Cc3ccccc3F)cc2O[C@H]1CN(C)C(=O)Cc1cccnc1	-5	-2	-2.9
COc1ccc(C#Cc2ccc([C@@H]3[C@H]4CN(C(=O)c5ccc(F)cc5)CC(=O)N4[C@H]3CO)cc2)cc1	?	.	.

Record cards, from the list above.
Results for COc1ccc(C#Cc2ccc([C@@H]3[C@H]4CN(C(=O)c5ccc(F)cc5)CC(=O)N4[C@H]3CO)cc2)cc1 → DUX4 inh = ?; DUX4 inh difference = .; DUX4 inh control = .
Results for CN(C)CC(=O)N1[C@@H]2c3ccc(-c4ccc(F)cc4)c(=O)n3C[C@@H]2[C@@H](CO)[C@@H]1C(=O)NC1CCC1 → DUX4 inh = 1; DUX4 inh difference = -2; DUX4 inh control = 2.2
Results for COc1ccc2c3c(n(C)c2c1)[C@@H](CO)N(C(=O)c1cccnc1)CC31CCN(C)CC1 → DUX4 inh = 1; DUX4 inh difference = 2; DUX4 inh control = -1.7

Continuation.
SMILES	DUX4 inh	DUX4 inh difference	DUX4 inh control
CN(C)CC(=O)N[C@@H]1C=C[C@@H](CC(=O)NCCN2CCCCC2)O[C@@H]1CO	1	3	-1.5
CCC(=O)N1C[C@@H](O)COC[C@@H]2O[C@H](CC(=O)NCc3ccc(Oc4ccccc4)cc3)CC[C@H]21	4	2	1.3
CN1CCN(C(=O)C[C@H]2CC[C@H]3[C@@H](COC[C@H](O)CN3Cc3ccc4c(c3)OCO4)O2)CC1	10	4	5.9
CN(C)CC#Cc1ccc([C@H]2[C@@H](CO)N3C(=O)CN(C(=O)c4cccc(F)c4)C[C@@H]23)cc1	7	-4	11
CCCNC(=O)N1[C@H](CO)[C@H](c2ccccc2)[C@@H]1CNC(=O)C1CCCCC1	0	-1	0.8
CN(C)C(=O)c1cccc(-c2ccc3c(c2)[C@@H]2[C@@H](CCN2S(=O)(=O)c2ccccc2)[C@@H](CO)N3)c1	-10	13	-22
CCCC#Cc1ccc([C@@H]2[C@@H](CO)N3CCCCN(S(=O)(=O)c4ccccc4F)C[C@H]23)cc1	1	-10	11
C[C@@H]1CN([C@H](C)CO)S(=O)(=O)c2ccc(C#Cc3ccccc3F)cc2O[C@H]1CN(C)C(=O)c1ccc2c(c1)OCO2	1	1	-0.1
C[C@@H]1CN([C@@H](C)CO)C(=O)Cc2cc(NC(=O)Cc3cn(C)c4ccccc34)ccc2O[C@@H]1CN(C)Cc1ccc(C(F)(F)F)cc1	-2	2	-3.8
O=C(C1CCOCC1)N1CC(=O)N2[C@H](CO)[C@H](c3ccc(C#Cc4cccc(F)c4)cc3)[C@H]2C1	1	1	0.3
Cc1cccc(S(=O)(=O)N[C@H]2CC[C@@H](CCNS(=O)(=O)c3ccccc3F)O[C@H]2CO)c1	-5	-2	-2.8
C/C=C/c1ccc([C@H]2[C@@H](CO)N(C(C)=O)[C@@H]2CN(CC)C(=O)CN(C)C)cc1	-2	-5	2.4
C[C@@H]1CN([C@@H](C)CO)C(=O)c2c(c3ccccc3n2C)-c2ccccc2CO[C@@H]1CN(C)C(=O)Nc1cccc(C(F)(F)F)c1	-9	-7	-1.9
CN(C)CC#Cc1ccc([C@H]2[C@H]3CN(C(=O)CN(C)C)CCCCN3[C@H]2CO)cc1	16	-14	30
O=C(Cc1ccccc1)N1CC2(C1)[C@H](c1ccccc1)[C@H](CO)N2C(=O)Cc1ccccc1	-8	5	-13
CC(=O)N1CCCCN2[C@H](CO)[C@@H](c3ccc(Br)cc3)[C@@H]2C1	19	17	1.6
CO[C@@H]1CN(C)C(=O)c2cccc(C#N)c2OC[C@H]2O[C@@H](CC[C@H]2OC)CCN(C)C(=O)[C@H]1C	-1	1	-2.7
COCC#Cc1cnc2c(c1)C(=O)N([C@@H](C)CO)C[C@@H](C)[C@H](CN(C)C(=O)CCN1CCCCC1)O2	1	-5	6.2
O=S(=O)(c1ccccc1F)N1C[C@@H]2N[C@H](C1)C2c1ccc(-c2ccncc2)cc1 (stereo partly specified)	-4	-4	-0.1
C[C@@H]1CN([C@@H](C)CO)S(=O)(=O)c2ccc(C3=CCCCC3)cc2O[C@H]1CN(C)S(=O)(=O)c1cn(C)cn1	5	5	0.1

Another view of some results above:
DUX4 inh | DUX4 inh difference | DUX4 inh control | structure
19 | 17 | 1.6 | CC(=O)N1CCCCN2[C@H](CO)[C@@H](c3ccc(Br)cc3)[C@@H]2C1
-1 | 1 | -2.7 | CO[C@@H]1CN(C)C(=O)c2cccc(C#N)c2OC[C@H]2O[C@@H](CC[C@H]2OC)CCN(C)C(=O)[C@H]1C

More results:
SMILES	DUX4 inh	DUX4 inh difference	DUX4 inh control
COc1ccccc1CN1C[C@@H](C)[C@H](OC)CN(C)C(=O)c2ccc(NC(C)=O)cc2OC[C@H]1C	-1	-5	3.4
O=C(C[C@H]1CC[C@H]2[C@@H](COC[C@H](O)CN2Cc2cc(F)cc(F)c2)O1)NC1CCCC1	?	.	.
O=C(C1CCCCC1)N1CC2(C1)[C@@H](c1ccccc1)[C@H](CO)N2C(=O)c1cccnc1	5	-1	5.2
O=C(Nc1ccc(F)cc1)N1[C@@H](CO)[C@@H]2c3ccccc3NC[C@@H]21	0	4	-4.4
C[C@@H]1CN([C@H](C)CO)S(=O)(=O)c2ccc(C3=CCCC3)cc2O[C@H]1CN(C)CC1CCOCC1	-2	-5	2.6
COc1cccc(C(=O)Nc2ccc3c(c2)C(=O)N(C)[C@H]2CC[C@@H](CC(=O)NCc4ccccc4F)O[C@H]2CO3)c1	1	2	-0.8
CC(=O)N1CC(=O)N2[C@H](C1)[C@H](c1ccc(-c3ccc(C#N)cc3)cc1)[C@@H]2CO	5	5	-0.5
O=C(Nc1ccccc1F)N1[C@H](CO)[C@H]2c3ccccc3NC[C@H]21	5	3	1.5
O=C(C[C@H]1C[C@@H]2c3cc(NC(=O)Nc4ccccc4F)ccc3O[C@@H]2[C@@H](CO)O1)NCc1cc(F)ccc1F	-4	-6	2.1
CCCNC(=O)N1CC2(CCN(Cc3cccc(OC)c3)CC2)c2c(n(C)c3cc(OC)ccc23)[C@@H]1CO	?	.	.
CCC(=O)N1[C@H](CO)[C@@H](c2ccccc2)[C@@H]1CN(C)C(=O)c1cccc(F)c1	0	-2	1.9
CCCNC(=O)N1CC2(CN(C(=O)c3ccncc3)C2)c2c([nH]c3cc(OC)ccc23)[C@H]1CO	3	10	-6.8
COCC(=O)N1[C@H](CO)[C@@H](c2ccc(-c3cccnc3)cc2)[C@@H]1C#N	0	4	-3.5
N#Cc1cccc(-c2ccc(C3[C@@H]4CN(C(=O)Nc5ccc(C(F)(F)F)cc5)C[C@H]3N4)cc2)c1 (stereo partly specified)	?	.	.
CO[C@H]1CN(C)C(=O)c2cc(NS(C)(=O)=O)ccc2OC[C@H](C)N(C)C[C@@H]1C	7	0	6.7
CN(C)CC(=O)N[C@@H]1CC[C@@H](CC(=O)NCCN2CCCCC2)O[C@@H]1CO	4	0	3.2
N#C[C@@H]1[C@@H](c2ccccc2-c2ccc(F)cc2)[C@@H](CO)N1C(=O)Cc1ccccc1	?	.	.
CO[C@H]1CN(C)C(=O)c2cc(NC(=O)Nc3cccc(Cl)c3)ccc2OC[C@@H](C)N(C(=O)Nc2c(C)noc2C)C[C@H]1C	-1	-3	1.9
O=C(C[C@H]1C[C@H]2c3cc(NC(=O)c4ccc5c(c4)OCO5)ccc3O[C@H]2[C@@H](CO)O1)NCc1cccc(F)c1	4	1	3.7
C[C@H](CO)N1C[C@H](C)[C@H](CN(C)C(=O)Nc2ccc3c(c2)OCO3)Oc2ccc(NC(=O)Cn3cnnn3)cc2C1=O	-2	-2	0.0
O=C(Nc1ccc(F)cc1)N1CC(=O)N2[C@H](CO)[C@H](c3ccc(C4=CCCC4)cc3)[C@H]2C1	8	7	1.2
CO[C@@H]1CC[C@H]2CCOc3c(C#N)cccc3C(=O)N(C)C[C@H](c3ccccc3)CC(=O)N(C)C[C@H]1O2	-8	-6	-1.5
C[C@H]1CN([C@@H](C)CO)C(=O)CCCn2cc(nn2)CO[C@@H]1CN(C)Cc1cccnc1	1	7	-6.3
Cc1ccc(NC(=O)Nc2ccc3c(c2)C(=O)N(C)[C@H]2CC[C@@H](CC(=O)O)O[C@H]2CO3)cc1	2	17	-15
O=C(c1cccnc1)N1C[C@H]2[C@@H](c3ccccc31)[C@@H](CO)N2CC1CCCCC1	-3	-3	-0.1
C[C@@H]1CN([C@H](C)CO)C(=O)c2c(c3ccccc3n2C)-c2ccccc2CO[C@@H]1CN(C)S(=O)(=O)CC(F)(F)F	-1	-6	4.8
COc1ccc2c3c(n(C)c2c1)[C@@H](CO)N(C)CC31CCN(C(=O)NC(C)C)CC1	23	21	2.3
CN1CCN(C(=O)[C@@H]2[C@@H](CO)[C@@H]3Cn4c(ccc(-c5cncnc5)c4=O)[C@@H]3N2CC2CCCC2)CC1	13	9	4.4
C[C@H](CO)N1C[C@H](C)[C@H](CN(C)C(=O)Nc2ccc(C(C)(C)C)cc2)OCc2cn(nn2)CCCC1=O	5	4	0.1
CC(C)(C)S(=O)N1Cc2cc(C(=O)NCCCN3CCOCC3)nc(-c3cccc(-c4cccc(F)c4)c3)c2[C@H]1CCO (stereo partly specified)	-2	-1	-0.4
O=C(NC[C@H]1[C@@H](c2ccccc2)[C@H](CO)N1CC1CCCC1)c1cccnc1	-5	-4	-0.7
N#Cc1cccc(-c2ccc([C@@H]3[C@H]4CN(C(=O)Nc5cccc(F)c5)CCCCN4[C@H]3CO)cc2)c1	?	.	.
COc1ccc2c3c([nH]c2c1)[C@@H](CO)N(C(=O)Cc1ccccn1)CC31CCN(Cc2ccccn2)CC1	4	-14	18
CN(C)C(=O)c1cccc(-c2ccc([C@@H]3[C@@H](C#N)N(C(=O)C4CCCCC4)[C@H]3CO)cc2)c1	-2	-2	0.3
COc1ccccc1-c1ccccc1[C@H]1[C@@H](C#N)N(C(=O)C2CCC2)[C@H]1CO	-4	-4	0.2

Only part of the results is shown, so the mix of outcomes need not match the whole.
